Assay outcomes deposited in PubChem BioAssay by several laboratories.
Mtb hypoxia inh: reduces hypoxia-regulated biosensor signal in M. tuberculosis; M. tuberculosis hypoxia-regulated fluorescent reporter, fluorescence; fluorescence inhibition, % (test concentration not listed); actives 0.1% (n = 300,000);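 active means 35 to 45% if threefold the growth effect, above 45% if 1.5-fold the growth effect; inactive means the rest, general growth blockers included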;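 further: wells of about 50 µL received 100 nL stock; 0% = vehicle wells and 100% = reference inhibitor wells; whole bacteria with a GFP reporter of the hypoxia response; strong numbers were not always called active; many hits fall short of the cut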
Sa RN4220 lethal: kills Staphylococcus aureus RN4220; S. aureus RN4220 growth, OD600, 16 h; inhibition, % (test concentration not listed); actives 0.33% (n = 330,000); AID 1259311;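 active means z-score of -3 or lower and OD600 up to 0.18 on both plates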;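 further: plate controls were untreated cells for no effect and reference antibiotic for full effect; stock transfer was 100 nL into about 80 µL; one replicate is shown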
BJeLR viability: kills HRASV12-expressing BJeLR cells | BJeLR (HRASV12) viability, CellTiter-Glo ATP luminescence, 48 h; reference of the scale not given here | AID 1554 | inhibition, % (test concentration not listed) | actives 0.17% (n = 300,000);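 active means replicate mean above 50%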;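 further: 50 nL library stock added to about 25 µL; numbers are from one replicate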
PrP UTR inh: suppresses PrP 5' UTR mRNA reporter expression. inhibition, % (concentration not given with the values). cell-based PrP 5' UTR mRNA reporter, plate reader. AID 488862. actives 0.35% (n = 340,000);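 active means every replicate at 50% or more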;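 further: 0 = median of the neutral control wells; tested in H4 reporter cells; numbers are from one replicate; inactives centre near -14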
Bead autofluor: counter-screen for toxin protease inhibitors: compound fluorescence; compound autofluorescence counterscreen, microsphere flow cytometry; hits give high values; fluorescence intensity (concentration not given with the values); actives 3.1% (n = 360,000); AID 624483;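 active means at least 3 SD above the mean of all compounds, about 16000 in these data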;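 further: 100 nL of 1 mM stock went into each well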
ugtP null kill: growth inhibition of S. aureus ugtP deletion strain | S. aureus RN4220 ugtP deletion, OD600 growth, 16 h; some inactives read as strong as hits | growth inhibition, % (no concentration beside the values) | actives 0.54% (n = 330,000) | AID 1259309;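 active means z-score under -3 and OD600 up to 0.15 on both plates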;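 further: plate controls were untreated wells for no effect and antibiotic for full effect; wells of about 80 µL received 100 nL stock; the first replicate is given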
Mtb hypoxia inh growth: also measured in Mtb hypoxia inh; calls as there; growth inhibition, %; measured here: M. tuberculosis growth (absorbance);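 0% = vehicle and 100% = reference antibiotic; read after six days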
An asterisk follows results filed as active; nt = not tested or not shown.

SMILES | Mtb hypoxia inh | Mtb hypoxia inh growth | Sa RN4220 lethal | BJeLR viability | PrP UTR inh | Bead autofluor | ugtP null kill
COc1cccc(-n2c(O)c(C=NCCN3CCNCC3)c(=O)[nH]c2=S)c1 | 12.8 | 9.9 | 2.5 | 6.1 | -24.9 | 3683 | 13.8
Cc1cccc(C(=O)O/N=C2/CC3CCC2(C)C3(C)C)c1 (stereo not given) | nt | nt | nt | 6.7 | -16.2 | 4506 | nt
Cc1ccc(CNS(=O)(=O)c2ccc3c(c2)NC(=O)CS3)cc1 | -0.5 | 4.4 | 3.7 | 3.8 | -3.4 | 5150 | -7.8
Cn1c(C=Nn2cnnc2)nc2ccccc21 | -1.3 | 11.7 | 3.8 | nt | nt | nt | 8.0
CCC(NC(=O)c1ccc([N+](=O)[O-])cc1[N+](=O)[O-])c1ccccc1 (stereo not given) | nt | nt | 12.7 | -3.5 | 18.7 | 3708 | 10.1
O=c1nc(/C=C/c2cc([N+](=O)[O-])ccc2Cl)cc(C(F)(F)F)[nH]1 | 3.6 | 6.7 | -0.3 | -9.9 | -47.2 | 22027* | -11.8
COC(=O)C1=C(c2cc3ccccc3o2)C[C@@H]2CC[C@H]1N2C(=O)NCc1ccccc1 | nt | nt | nt | -2.6 | -19.4 | 3761 | nt
CC(=O)Nc1cc2nc(C)n(Cc3ccccc3)c2nc1C | -3.1 | 3.2 | 3.0 | 0.8 | -16.8 | 4328 | 5.2
Cc1ccc(Sc2ccc(C(=O)N3CCOCC3)cc2[N+](=O)[O-])cc1 | 0.6 | -16.4 | -1.1 | -4.1 | -6.8 | 3520 | 0.5
CCN1CCN(c2cc(C)c3cc(NC(=S)N4CCN(c5ccc(F)cc5)CC4)ccc3n2)CC1 | 2.3 | 17.3 | 2.9 | -0.4 | -17.6 | 4793 | -2.4
Cc1ccc(S(=O)(=O)N2CCN(CCOc3ccccc3)CC2)cc1 | 10.3 | 4.4 | -2.5 | nt | -45.1 | 6082 | 10.0
Cc1cc(C(=O)COc2ccccc2C(N)=O)c(C)n1CC1CCCO1 (stereo not given) | 7.8 | 2.0 | -3.0 | 10.1 | -31.7 | 4352 | 1.0
CCCOc1ccc(-c2nc(N)n[nH]2)cc1 | 4.0 | 5.9 | 3.2 | -2.4 | -32.6 | 16673* | 4.2
O=C(NCCOc1ccccc1)C1CCCCC1 | 20.1 | 21.4 | 7.1 | 6.2 | -21.3 | 4281 | 1.4
COc1ccc(CCNc2ncnc3c2c(C)c(C)n3CCO)cc1OC | 15.3 | 8.6 | -1.1 | -3.4 | -13.3 | 4207 | -1.9
COc1ccc(Nc2nc(NCCO)nc(N3CCCC3)n2)cc1 | -2.1 | 10.0 | 0.2 | -3.9 | -1.5 | 3941 | -2.7
CCN(C[C@H]1N[C@@](CC)(C(=O)OC)[C@H]2C(=O)N(C)C(=O)[C@@H]12)C(=O)c1ccc(F)cc1 | -0.8 | 1.5 | 0.1 | nt | -0.4 | 2843 | 5.2
CCOCCn1c(N2CCN(c3ccccc3)CC2)nc2c1c(=O)[nH]c(=O)n2C | 9.0 | -0.5 | 6.6 | -0.2 | -12.3 | 4179 | 5.1
CCOC(=O)c1c(CN2CCN(C)CC2)oc2ccc(OC)cc12 | 5.5 | 1.4 | 2.1 | -0.6 | 2.6 | 16006 | 13.0
O=S(=O)(NCCc1ccccn1)c1cc(Cl)cc(Cl)c1O | 6.5 | 3.0 | 30.6 | nt | -23.7 | 3813 | 1.3
CCOC(=O)c1c(C)[nH]c(C)c1C(=O)CSc1nc(N)cc(N)n1 | 4.3 | 9.0 | 1.8 | 3.1 | -5.5 | 3994 | 0.9
Cc1ccc(N2CCN(C(=O)c3nn(C)c4c3CS(=O)(=O)c3ccccc3-4)CC2)c(C)c1 | -9.5 | -0.4 | 3.6 | -5.3 | -30.1 | nt | -1.1
COc1ccc(NC(=O)COC(=O)CCCC2=NS(=O)(=O)c3ccccc3N2)cc1Cl | -7.0 | -2.2 | 1.5 | -14.1 | -16.9 | 4740 | 3.0
COc1ccccc1OC(=O)c1ccc2nsnc2c1 | 3.6 | 6.7 | 6.4 | 5.5 | -25.1 | 9060 | 2.8
S=c1nc(C2CC2)n(-c2ccccc2)[nH]1 | 11.4 | 0.2 | 3.0 | 4.1 | 0.5 | 4132 | -2.5
Cc1nnc(NCCc2ccccc2)n(N)c1=O | nt | nt | -2.8 | -4.4 | -15.7 | 3627 | -3.1
Cn1c(CN2CCCCC2)nc2cc(NC(=O)c3ccc(Cl)cc3)ccc21 | 5.7 | 5.5 | 2.8 | 14.1 | -22.4 | 20694* | 9.0
CCN(CC(=O)Nc1c(F)cccc1F)C(=O)c1ccc(Cl)c(S(=O)(=O)N2CCCC2)c1 | 5.1 | 4.9 | 0.5 | 7.1 | -34.7 | 6633 | -2.3
O=C(CSc1ncnc2sc3c(c12)CCC3)Nc1ccccc1C(=O)O | 12.7 | 14.0 | 7.0 | -3.3 | -5.3 | 4724 | 13.4
Cc1c(N/C=C/C(=O)c2cccs2)c(=O)n(-c2ccccc2)n1C | 1.2 | 2.7 | 5.2 | -1.6 | -11.7 | 10541 | 1.2
COc1cccc(NC(=S)NNC(=O)c2c([N+](=O)[O-])c(C)nn2C)c1 | 6.1 | 1.9 | 3.8 | 5.7 | -2.9 | 7894 | 10.0
CCc1ccc(C(=O)CN2C(=O)NC3(CCCCCC3)C2=O)cc1 | 2.6 | 13.3 | 3.8 | nt | -64.5 | 5069 | 1.8
COc1ccc(OC)c(C(O)C2CCCCN2)c1 (stereo not given) | 5.5 | -3.0 | 6.8 | -3.8 | -12.4 | nt | 12.1
CCOC(=O)C1(Cc2cccc(F)c2)CCN(Cc2ccon2)CC1 | 3.1 | 13.8 | 8.2 | 7.3 | -27.5 | 4684 | 1.9
Cc1cc(C(=O)NCC(c2ccco2)N(C)C)ccc1[N+](=O)[O-] (stereo not given) | 10.3 | 2.1 | 1.4 | -1.1 | 1.7 | 4819 | 0.3
COc1ccc(-c2cnc[nH]2)cc1 | 5.0 | 11.2 | 1.1 | 3.2 | -23.3 | 4327 | 4.5
Cc1ccc(NC2Sc3ccccc3NC2=O)cc1Cl (stereo not given) | 8.5 | -1.7 | -1.8 | -3.7 | -30.8 | 4157 | -9.0
Cc1ccc(-n2nc3c(c2NC(=O)c2ccc4c(c2)OCO4)CSC3)c(C)c1 | 13.7 | 13.5 | 4.3 | 8.9 | -12.6 | 10568 | 4.7
O=C1CC(=O)N(c2ccc(Cl)cc2Cl)C(=O)N1 | -1.9 | 10.0 | 5.4 | -2.7 | -31.9 | 21690* | 6.1
CS(=O)(=O)c1ccc2nc(NC(=O)CCNC(=O)c3ccc([N+](=O)[O-])cc3)sc2c1 | 7.8 | 1.4 | 5.8 | nt | -18.1 | nt | 11.6
O=C(O)c1ccccc1NSc1ccccc1[N+](=O)[O-] | 2.1 | 2.9 | 12.8 | 4.0 | -4.9 | 2075 | -8.1
CCC(C)C(NC(=O)C(N)CC(C)C)C(=O)NC(CCC(=O)OCc1ccccc1)C(N)=O (stereo not given) | -10.3 | 1.8 | -1.2 | 1.1 | -66.9 | 7331 | -2.7
COc1ccccc1C1C=C(c2ccc(Cl)cc2)Nc2nc(N3C(=O)CCC3=O)nn21 (stereo not given) | -11.6 | 4.1 | 0.4 | nt | -6.6 | 10285 | -5.4
Cc1ccc(NC(=O)CCNC(=O)c2ccc(Br)cc2)cc1S(=O)(=O)N1CCCCCC1 | nt | nt | nt | -6.4 | -21.0 | 5400 | nt
COC(=O)[C@@]12CCCCN1[C@H](c1ccc(-c3ccc(C(C)=O)cc3)cc1)[C@H]1C(=O)N(C)C(=O)[C@H]12 | nt | nt | nt | 4.3 | -10.4 | 3913 | nt
O=C(OCC(=O)N1CCN(C(=O)c2ccco2)CC1)c1cc(-c2ccc(F)cc2)nc2ccccc12 | 9.2 | 5.1 | 1.5 | 5.1 | -11.3 | 8303 | 5.7
CC(C)C(NC(=O)c1ccc(Cl)cc1)C(=O)NC1=NCCS1 (stereo not given) | 5.1 | 2.0 | 0.2 | 0.3 | -15.9 | 10153 | 2.9
CN(C)C(=O)c1ccccc1Sc1ccc(Cl)cc1Cl | nt | nt | 1.8 | 6.0 | -13.6 | 3908 | 3.9
COC(=O)C(NC(=O)C(C)Oc1ccccc1)C(C)C (stereo not given) | 4.2 | 6.8 | 2.3 | -5.3 | -11.8 | 20348* | 4.8
O=[N+]([O-])c1ccc(-c2nnc3cccc(Cl)n23)cc1 | -2.8 | -0.6 | 1.2 | -4.0 | -16.0 | 3250 | 13.5
COC(=O)Oc1c(Br)c(=O)oc2ccccc12 | 11.5 | 13.1 | 5.3 | -3.8 | -31.5 | 8725 | -2.1
Cc1ccc(O)c(NC(=O)c2ccco2)c1 | nt | nt | -0.2 | 3.1 | -32.7 | 4518 | -1.1
CC(=O)NC(c1ccco1)c1cc(Cl)c2ccccc2c1O (stereo not given) | -2.5 | -8.9 | 12.2 | nt | -4.3 | 3917 | 0.8
Nc1cccc(NC(=O)c2cccs2)c1 | 8.7 | 9.3 | 0.9 | 6.4 | -6.5 | 4672 | -5.1
CC/C(=N/NC(=O)c1ccc(Br)cc1)c1ccc(OCCN2CCOCC2)cc1 | nt | nt | nt | 3.2 | -14.1 | 2345 | nt
CSc1ccc(CNCc2ccc3c(c2)OCO3)cc1 | 1.8 | 2.7 | 0.2 | 3.2 | -4.4 | 4283 | -2.9
COc1ccccc1CNC(=O)CN(C)CC(=O)Nc1cccc(F)c1 | 5.2 | 2.7 | -1.4 | -12.4 | -26.7 | 8553 | -3.4
COc1cccc(N2C(=NC(=O)c3ccccc3)SC3CS(=O)(=O)CC32)c1 (stereo not given) | -9.5 | -4.3 | 2.5 | -11.9 | -20.8 | 5564 | 14.9
Cn1c(SCC(=O)NCC2CCCO2)nc2c(c1=O)SCC2 (stereo not given) | 2.2 | 1.9 | 5.5 | -6.9 | -7.2 | 5144 | 4.7
CCN1CCN(C(=O)c2cc3c(=O)n4ccccc4nc3s2)CC1 | -4.7 | -9.8 | 4.9 | -0.1 | -15.2 | 3961 | 6.8

Entries of single compounds, quoted from the list.
S=c1nc(C2CC2)n(-c2ccccc2)[nH]1 across the screens: Mtb hypoxia inh = 11.4; Mtb hypoxia inh growth = 0.2; Sa RN4220 lethal = 3.0; BJeLR viability = 4.1; PrP UTR inh = 0.5; Bead autofluor = 4132; ugtP null kill = -2.5
CCOC(=O)C1(Cc2cccc(F)c2)CCN(Cc2ccon2)CC1 across the screens: Mtb hypoxia inh = 3.1; Mtb hypoxia inh growth = 13.8; Sa RN4220 lethal = 8.2; BJeLR viability = 7.3; PrP UTR inh = -27.5; Bead autofluor = 4684; ugtP null kill = 1.9

Single values from the results shown:
Cc1ccc(NC(=O)CCNC(=O)c2ccc(Br)cc2)cc1S(=O)(=O)N1CCCCCC1 @ PrP UTR inh = -21.0
CSc1ccc(CNCc2ccc3c(c2)OCO3)cc1 @ Mtb hypoxia inh growth = 2.7
COc1ccccc1C1C=C(c2ccc(Cl)cc2)Nc2nc(N3C(=O)CCC3=O)nn21 (stereo not given) @ ugtP null kill = -5.4
CCN1CCN(C(=O)c2cc3c(=O)n4ccccc4nc3s2)CC1 @ Mtb hypoxia inh growth = -9.8

Continued.
SMILES | Mtb hypoxia inh | Mtb hypoxia inh growth | Sa RN4220 lethal | BJeLR viability | PrP UTR inh | Bead autofluor | ugtP null kill
CCCNC(=O)CC1C(=O)N(Cc2ccccc2)C(C)c2nc3ccccc3n21 (stereo not given) | 17.9 | 18.6 | 1.7 | 0.3 | -69.0 | 3619 | 4.2
CCN(CC)C(=O)Cn1cnc2ccccc2c1=O | -12.2 | -6.9 | -0.7 | 4.5 | 6.6 | 9913 | -1.1
CC(C)N1CCc2c(sc(NC(=O)c3ccc(S(=O)(=O)N4CCOCC4)cc3)c2C#N)C1 | 12.0 | 11.8 | 4.1 | -12.0 | -18.8 | 5675 | 2.3
Cc1cc2occ(CC(=O)N(C)CC(=O)Nc3cccc(F)c3)c2cc1C | -3.5 | -4.6 | -1.9 | -7.1 | -19.3 | 4923 | 0.2
O=C(C1CCN(C2CC(=O)N(Cc3ccccc3)C2=O)CC1)N1CCCCCC1 (stereo not given) | nt | nt | 1.1 | -6.1 | -19.6 | 4909 | 6.2
Cc1ccc(C(=O)Nc2ccc(N3CCN(C(=O)c4cccs4)CC3)cc2)c(Cl)c1 | -3.1 | 12.1 | 5.7 | 9.4 | -23.6 | 5368 | 7.5
COc1ccc(NC(=O)CCCCCn2nnc3ccccc3c2=O)cc1 | -6.4 | -6.3 | 0.8 | 1.5 | -4.2 | 3864 | 11.8
Cc1ccc(C)c(N2CCN(S(=O)(=O)c3c(C)noc3C)CC2)c1 | 10.3 | 4.3 | 0.3 | -3.4 | -17.2 | 5071 | 6.6
